OX1R FRET antag = antagonists of human orexin 1 receptor (OX1R). Orexin/Hypocretin receptor type 1 (Homo sapiens), O43613. OX1R-expressing cells, FRET antagonist read-out. inhibition, % at 6.6 µM. actives 1.8% (n = 330,000). AID 485270, 2010; in the data active = inhibition mostly above about 38%, no sharp cut-off; inactive = mostly below about 40%;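 note: 0% = agonist challenge alone and 100% = reference antagonist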
Target sequence (O43613 whole entry, looked up): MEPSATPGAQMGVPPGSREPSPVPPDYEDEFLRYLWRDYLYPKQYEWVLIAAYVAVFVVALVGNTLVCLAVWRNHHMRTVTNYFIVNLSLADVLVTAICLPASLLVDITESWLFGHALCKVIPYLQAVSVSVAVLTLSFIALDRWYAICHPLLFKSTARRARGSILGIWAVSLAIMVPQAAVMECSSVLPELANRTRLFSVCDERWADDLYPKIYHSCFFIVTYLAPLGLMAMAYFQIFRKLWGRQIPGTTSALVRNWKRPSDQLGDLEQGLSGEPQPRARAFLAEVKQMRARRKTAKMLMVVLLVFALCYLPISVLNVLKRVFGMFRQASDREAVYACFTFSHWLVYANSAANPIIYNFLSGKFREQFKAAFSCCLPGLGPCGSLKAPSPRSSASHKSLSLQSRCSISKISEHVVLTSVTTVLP
STK33 kinase inh = inhibitors of purified STK33 kinase, primary screen, biochemical, ADP-Glo luminescence, homogeneous, cell-free. Serine/threonine-protein kinase 33 (Homo sapiens), Q9BYT3. MBP phosphorylation. inhibition, % at 10 µM. actives 0.073% (n = 320,000);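 active = inhibition at or above 25%, using the most active replicate where run in duplicate; inactive = inhibition below 25%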
Target sequence (Q9BYT3 whole entry, looked up): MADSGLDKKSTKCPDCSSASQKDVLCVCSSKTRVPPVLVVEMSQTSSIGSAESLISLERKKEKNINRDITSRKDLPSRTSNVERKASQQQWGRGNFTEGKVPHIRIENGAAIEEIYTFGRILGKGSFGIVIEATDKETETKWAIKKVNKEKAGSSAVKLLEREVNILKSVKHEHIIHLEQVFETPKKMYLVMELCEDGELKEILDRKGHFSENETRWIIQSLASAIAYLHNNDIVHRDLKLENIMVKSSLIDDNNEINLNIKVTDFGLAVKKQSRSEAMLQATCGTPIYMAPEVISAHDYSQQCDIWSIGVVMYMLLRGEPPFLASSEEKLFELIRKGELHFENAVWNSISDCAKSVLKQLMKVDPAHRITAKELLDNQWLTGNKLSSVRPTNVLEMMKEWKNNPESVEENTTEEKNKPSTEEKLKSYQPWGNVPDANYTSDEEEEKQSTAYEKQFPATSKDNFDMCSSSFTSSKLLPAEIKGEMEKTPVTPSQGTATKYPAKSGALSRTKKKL
* marks the source's active call; other numbers are inactive results; x = not tested or not shown. These rows are one share of the data; most or all hits stand in other tables.

Compound	OX1R FRET antag	STK33 kinase inh
CCOc1cc(NC(=S)Nc2cccc(OC)c2)c(OCC)cc1NC(=O)C(C)C	22	-0.2
COc1ccccc1OCCC(=O)Nc1nc(C)cs1	11	-2.7
CC(C)C(=O)Nc1ncc(C(F)(F)F)cc1Cl	6	-0.5
O=C(CSc1nnc(COc2ccccc2)o1)c1ccccc1	12	-1.7
CN(C)CCCNC(NC(=O)/C=C/c1ccccc1)C(Cl)(Cl)Cl (stereo not given)	8	0.2
Cc1cccc(-n2c(-c3ccccc3)c[nH]c2=S)c1C	24	0.1
CCn1c(SCC(=O)OC)nc2cc(S(=O)(=O)N3CCOCC3)ccc21	10	-2.7
CC1CCCCN1CCCNC(=O)C1CCCN(c2ncnc3c2nc2n3CCCCC2)C1 (stereo not given)	6	-1.9
O=C(COc1ncnc2cc(Cl)ccc12)c1ccccc1	8	0.2
CC1(C)Oc2ccc(C(=O)N3CCCCC3)cc2N(CC(=O)NCc2ccccc2)C1=O	3	-0.9
COc1cccc(C2C(C(=O)c3cc4ccccc4o3)=C(O)C(=O)N2CCN(C)C)c1OC (stereo not given)	-10	-2.0
COc1cc(NC(=O)c2cc(S(=O)(=O)N3CCCCC3)ccc2N2CCOCC2)cc(OC)c1	9	-4.0
CC(=O)Nc1ccc2c(c1)ncn2C	10	-1.0
CNc1nnc(Sc2ncccc2[N+](=O)[O-])s1	48*	-1.4
O=C(NNC(=O)c1ccccc1OCc1ccccc1)c1ccccc1F	-5	-0.1
CCOC(=O)c1sc(NC(=O)c2cc(-c3cccc(O)c3)on2)c(C(=O)OCC)c1C	5	3.3
CCc1nnc(SCC(=O)Nc2ccc(N3CCOCC3)cc2)n1C	11	-0.9
O=C(O)CCCNC(=O)c1ccc(NC(=O)Cc2ccc(Cl)cc2)cc1	4	-0.6
CC(NC(=O)Nc1ccccn1)N1C(=O)C2C3C=CC(C3)C2C1=O (stereo not given)	11	-0.6
O=C1C(=O)N(CC2CCCO2)C(c2ccco2)/C1=C(/O)c1ccc(F)cc1 (stereo not given)	6	-0.5

Arranged by length of the SMILES (ascending): some entries from above.
Compound	OX1R FRET antag	STK33 kinase inh
CC(=O)Nc1ccc2c(c1)ncn2C	10	-1.0
CNc1nnc(Sc2ncccc2[N+](=O)[O-])s1	48*	-1.4
CCc1nnc(SCC(=O)Nc2ccc(N3CCOCC3)cc2)n1C	11	-0.9
O=C(O)CCCNC(=O)c1ccc(NC(=O)Cc2ccc(Cl)cc2)cc1	4	-0.6
O=C1C(=O)N(CC2CCCO2)C(c2ccco2)/C1=C(/O)c1ccc(F)cc1 (stereo not given)	6	-0.5
COc1cccc(C2C(C(=O)c3cc4ccccc4o3)=C(O)C(=O)N2CCN(C)C)c1OC (stereo not given)	-10	-2.0

New compounds follow.
Compound	OX1R FRET antag	STK33 kinase inh
Cc1ccc(C(=O)CSc2nnc(-c3ccc4[nH]c(C)c(C)c4c3)o2)cc1C	6	0.6
COC(=O)Nc1ncc(CN2C(=O)c3ccccc3C2=O)s1	14	-1.9
Cc1cccc(N2CCN(C(=O)CCC(=O)N3CCOc4ccc(Cl)cc43)CC2C)c1 (stereo not given)	19	0.1
COCCCNC(=S)NNC(=O)c1cc(Cl)c(O)c(Cl)c1	2	-2.2
CCCCNC(=O)c1ccc2c(SCC(=O)O)c3c(nc2c1)CCCC3	18	x
O=C(OCCN1CCCCC1)c1cccc(Cl)c1	24	0.7
COc1cc(CN(C(=O)c2cccs2)C2CCS(=O)(=O)C2)cc(OC)c1OC (stereo not given)	17	x
Nn1c(SCc2cccc(Oc3ccccc3)c2)nnc1C(F)(F)F	12	x
O=S1(=O)NC2CCCCCN2c2ccc(F)cc21 (stereo not given)	17	-0.6
CCOC(=O)C1CCN(c2nnc(N3CCCC3=O)s2)CC1	18	-0.8
O=C(COC(=O)c1ccccc1SCC(=O)N1CCCC1)Nc1ccccc1	23	-0.1
CCn1c(CSc2nc3ccccc3s2)nnc1SCC(=O)OC(C)(C)C	11	1.8
Cc1ccc(OCC(=O)O/N=C(\N)c2cccc([N+](=O)[O-])c2)cc1C	7	-0.4
CC1=CC(c2ccc(Cl)cc2)n2nc(NC(=O)CCC(=O)O)nc2N1 (stereo not given)	5	-0.3
O=C(CCCOc1ccc(Cl)cc1Cl)N/N=C/c1cccc([N+](=O)[O-])c1	9	0.0
CN(C(=O)CN1C(=O)c2cc(Cl)c(Cl)cc2C1=O)C1CCS(=O)(=O)C1 (stereo not given)	30	-1.2
COc1ccc(CNCCNC(=O)c2nonc2N)cc1OC	-4	1.2
CCc1nc2cc(Cl)c(Cl)cc2nc1CC	-1	-0.2
N#CCc1ccc(OC(=O)c2ccncc2)cc1	16	0.4
O=C(Cc1ccc(F)cc1)NCCS(=O)(=O)N1CCN(c2ccccc2)CC1	0	-1.6
Cc1ccc2c(CC(=O)OC(C)C(=O)NCc3ccc4c(c3)OCO4)coc2c1 (stereo not given)	28	-0.4
COc1cc(Cl)c(C)cc1NC(=O)CN(C)Cc1cccc(OC)c1OC	23	-2.6
COc1ccc(OC(=O)COc2cccc(C)c2)cc1	-1	-0.2
CCC(SC1=Nc2ccccc2C2=NC(CC(C)C)C(=O)N12)C(=O)Nc1ccc2c(c1)OCO2 (stereo not given)	36	-0.3
Cc1cccc(Cn2cnc3c(nnn3Cc3ccccc3F)c2=O)c1	3	-1.3
CCOC(=O)N1CCC(N2CCN(S(=O)(=O)CC)CC2)CC1	0	0.3
C#Cc1cccc(C(=O)N2CCCC(CCC(=O)NCc3ccccc3F)C2)c1 (stereo not given)	18	-1.8
COc1ccccc1N(CC(=O)NCc1ccccc1C)S(=O)(=O)c1ccc(C)cc1	26	0.4
CC1CCN(c2nc3c(c(=O)[nH]c(=O)n3C)n2CC(C)CSc2nnnn2-c2ccccc2)CC1 (stereo not given)	4	-1.3
CC1CCC2(CC1)NC(CO)(CO)CO2 (stereo not given)	5	-3.3
CC(C)(C)NC(=O)c1cc(NC(=O)c2ccco2)cc(NC(=O)c2ccco2)c1	59	1.0
Cc1noc(C)c1C(=O)N(C)CC(=O)Nc1ccc(F)c(F)c1F	5	-0.6
CCCCCCCCCOC1OC(CO)C(O)C(O)C1NC(C)=O (stereo not given)	1	-1.4
CCOC(=O)C1CCN(C(=O)/C(C)=C\c2ccccc2)CC1	7	-1.8
S=C(Nc1ccccc1)Nc1ccc(Cl)cc1Cl	11	0.1
Cc1csc(SCC(=O)NC(=O)c2ccccc2)n1	17	-0.7
CCOC(=O)CCc1n[nH]c(=O)[nH]c1=O	12	-0.7
CCOC(=O)c1c(C)[nH]c(C(=O)OCC(=O)Nc2cc(C)ccc2OC)c1C	17	0.1
Cc1nnc(SCC2=C(C(=O)O)N3C(=O)C(NC(=O)Cn4nc(C)c(Cl)c4C)C3SC2)s1 (stereo not given)	2	0.4
COC(=O)c1cc(S(=O)(=O)N2CCN(c3ccc(C(C)=O)cc3)CC2)c[nH]1	-4	-1.5

In another format: results already given
CCOC(=O)c1c(C)[nH]c(C(=O)OCC(=O)Nc2cc(C)ccc2OC)c1C
  OX1R FRET antag = 17	STK33 kinase inh = 0.1
Cc1nnc(SCC2=C(C(=O)O)N3C(=O)C(NC(=O)Cn4nc(C)c(Cl)c4C)C3SC2)s1 (stereo not given)
  OX1R FRET antag = 2	STK33 kinase inh = 0.4
COC(=O)c1cc(S(=O)(=O)N2CCN(c3ccc(C(C)=O)cc3)CC2)c[nH]1
  OX1R FRET antag = -4	STK33 kinase inh = -1.5

Going on with the list:
Compound	OX1R FRET antag	STK33 kinase inh
O=C(NCc1ccco1)C(c1ccncc1)N(C(=O)Cn1nnc2ccccc21)c1ccccc1F (stereo not given)	5	-1.1
CCOC(=O)CCCCNC(=O)Nc1ccccc1	13	x
CCn1nc(NC(=O)CC(C)C)c2cc3cccc(C)c3nc21	-5	-0.6
CC1CCN(S(=O)(=O)c2ccc(NC(=O)Cn3nnc(-c4ccccc4F)n3)cc2)CC1	8	-0.8
CC1Cc2ccccc2N1C(=O)CSc1ncccc1C(=O)O (stereo not given)	15	-1.2
COc1ccc(C2=NN(C3=NN=C(N)Cc4ncnn43)C(O)(C(F)(F)F)C2)cc1 (stereo not given)	7	-0.9
CCCCCCn1c(=O)[nH]c2nc3cc(N)ccc3nc2c1=O	18	-0.7
CCCOc1ccc(S(=O)(=O)NCc2ccc(OC)cc2)cc1	41	-0.7
N#Cc1c2c(c(-c3ccco3)[nH]c1=O)CCCC2	15	-2.1
CCCc1c(C(=O)N/N=C/c2ccc(OC)c(OCc3ccccc3)c2)nnn1-c1nonc1N	9	-1.7
C/C(CCc1oc2ccc(Br)cc2c1-c1ccc(C)o1)=N/O	7	-1.1
O=C(O)CCn1nnc(-c2ccccc2)n1	25	-3.3
COc1ccc(CNC(=O)Nc2cccc(C(F)(F)F)c2)cc1OC	8	-2.2
COCCNC(=O)C(c1ccc(O)cc1)N(Cc1ccco1)C(=O)CCC(=O)Nc1ccccn1 (stereo not given)	24	0.1
C=CCn1c(SC(C)C(=O)NCCC2=CCCCC2)nc2ccccc2c1=O (stereo not given)	9	-0.3
COC1CCN(Cc2cn(Cc3ccccc3)nc2-c2cc3ccccc3o2)CC1	13	4.6
O=C(Nc1ccc(Nc2ccccc2)cc1)c1ccc(F)cc1	22	-0.3
CSCC(CO)NS(=O)(=O)c1ccc(C)cc1 (stereo not given)	2	0.5
Cc1ccn2cc(CCNC(=O)c3ccc(Br)o3)nc2c1	5	0.3
COC(=O)c1cccn(CC(=O)c2ccc(Cl)cc2Cl)c1=O	17	0.2
Cc1nn(Cc2ccccc2Cl)c(C)c1C(=O)NCc1ccco1	13	0.5
CC1(C)CC(NC(=O)c2cccc(S(=O)(=O)N(Cc3ccccc3)c3ccccc3)c2)CC(C)(C)N1	16	-0.5
CSc1nnc(N2C(=O)C(O)=C(C(=O)c3ccco3)C2c2ccccc2F)s1 (stereo not given)	8	-1.9
COc1ccc(NC(=S)N2CCNC(=O)C2CC(=O)Nc2cccc(Cl)c2C)cc1 (stereo not given)	6	0.0
CCOC(=O)C(C)Sc1ccc2nnc(-c3ccc(F)cc3)n2n1 (stereo not given)	2	0.2
Cn1nnc(NC(=O)COc2ccc(C3CCCCC3)cc2)n1	15	-1.2
Cc1ccc2c(c1)N(C(=O)CCC(=O)NCc1cccnc1)CC(C)O2 (stereo not given)	10	-0.9
CCOC(=O)C1=NN(c2ccc(C)cc2)CC1C(=O)OC (stereo not given)	27	-2.2
CSc1nc2sc3c(c2c(=O)n1C1CCCCC1)CCN(C)C3	34	-0.6
COc1cccc(CN(CC(=O)NCC2CCCO2)C(=O)CCC(=O)Nc2cc(C)on2)c1 (stereo not given)	14	-1.3
O=C(NCCNC(=O)c1ccccc1Br)c1cccnc1	4	-0.1
Nc1c(-c2ccc(Cl)cc2)nnn1-c1ccccc1	17	-0.2
COc1cccc(CNc2ccc(C(=O)O)cc2)c1OCc1ccccc1	25	x
Cc1ccc2[nH]c(=O)c(CN(Cc3cccs3)Cc3nnnn3Cc3ccccc3)cc2c1	11	-1.2
COc1ccc2c(c1)c(=O)oc1cc(OC(C(=O)O)c3ccccc3)ccc12 (stereo not given)	4	-0.7
CCN(C(=O)CSc1nnc(-c2ccccc2Br)o1)C1CCS(=O)(=O)C1 (stereo not given)	0	-1.1
CC(=O)c1c(C)[nH]c(C(=O)CSc2nnc(N)s2)c1C	15	-0.7
CC1CCCCC12NC(=O)N(CC(=O)c1ccc(Cl)s1)C2=O (stereo not given)	21	0.2
COc1ccc(C(=O)C(OC(=O)c2ccccc2Cl)c2ccccc2)cc1 (stereo not given)	24	-0.1
COc1ccc(-c2cc(OC)c3ccccc3n2)cc1	33	0.6
COC(=O)C1C(=O)/C(=C/N(C)C)C(=O)CC1(C)C (stereo not given)	24	-0.5
CCOc1ccc(/C=N/n2c(SC)nnc2-c2ccccc2)cc1OCC	7	-0.9
Cc1cccc(C)c1OCC(O)CN (stereo not given)	17	-1.1
COC(=O)COc1ccc(Oc2cc(C)nc(SC)n2)nn1	5	2.1
CCO[C@@H]1OC(C(N)=O)=C[C@H](c2coc3ccccc3c2=O)[C@H]1CCCO	18	0.3
CCOc1ccc(NC(=O)NCc2ccc3c(c2)OCO3)cc1	4	-0.5
C(=N\Nc1nc2ccccc2[nH]1)/c1cccs1	11	10
O=C(CSC(=S)N1CCCC1)Nc1ccc(Br)cc1Cl	24	1.0
O=C(O)Cn1nnnc1SCC(=O)Nc1ccc(OC(F)(F)F)cc1	13	-0.1
CCN(C(=O)CN1C(=S)NC(C)(C)CC1C)c1ccc(C)c(C)c1 (stereo not given)	24	-0.3

The listing continues.
Compound	OX1R FRET antag	STK33 kinase inh
CCNC(=S)N1CCC(n2cnc3ccccc32)CC1	16	-0.1
Cc1ccccc1-n1c(=O)c2ccccc2n2cnnc12	8	-1.5
Cc1occc1C(=O)NC(C)C(C)(C)C (stereo not given)	5	-0.3
CCN(Cc1ccccc1)C(=O)CSc1n[nH]c(N)n1	18	-1.3
O=C(NCC(=O)N1CCN(S(=O)(=O)c2ccccc2F)CC1)c1ccc2c(c1)OCO2	20	0.9
CCn1c2ccccc2c2cc(NC(=O)c3ccccc3-c3ccccc3C(=O)O)ccc21	0	-0.6
COC(=O)C(O)(NC(=O)c1ccncc1)C(F)(F)F (stereo not given)	1	0.7
CCCc1cc(NCc2ccccn2)n2c(nc3ccccc32)c1C#N	17	-0.6
CCSc1nc2sc3c(c2c2nnc(SCC(=O)NCc4ccco4)n12)CCCC3	33	1.2
CC(=O)Nc1ccc(NC(=O)C(C)OC(=O)c2ccc3c(c2)OCCO3)cc1 (stereo not given)	15	0.1
